miR-21 FLuc = raises the signal of a miR-21 reporter; Potency, µM (series often up to 38.3 µM), inactives show at the top dose reporter change, positive = more light; 340,000 tested, under 10 active; AID 2288; HeLa miR-21 FLuc reporter, luciferase, 48 h; active = well fitted rising curve with a large enough effect; inconclusive = small, poorly fitted or top-dose-only effect; inactive = no such curve, though single readings can be large or run the other way;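 also: % of control where 0% means no effect; miR-21 action dims this reporter so a rising signal means less miR-21 action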
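HeLa cells stably expressing CMV-driven firefly luciferase with a downstream miR-21 binding sequence, endogenously expressing miR-21, were treated with titrations (up to about 40uM final) for 48 hours at 37 degree Celsius. Luciferase luminescence was read after lysis.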
GLA inh pH 4.5 = inhibitors of human alpha-galactosidase A at pH 4.5; P06280; purified enzyme, 4-MU-alpha-Gal fluorescence, pH 4.5; activity change, negative = inhibition, % at 105 µM; 230,000 tested, under 10 active; AID 1467; inconclusive = small, poorly fitted or top-dose-only inhibition, or a rising curve; inactive = flat fitted curve, though single readings scatter; no compound was filed as active;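 also: 0% = full activity with enzyme and -100% = basal without enzyme; dose as in the result columns while the protocol names 77 µM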
Target sequence (P06280 whole entry, looked up): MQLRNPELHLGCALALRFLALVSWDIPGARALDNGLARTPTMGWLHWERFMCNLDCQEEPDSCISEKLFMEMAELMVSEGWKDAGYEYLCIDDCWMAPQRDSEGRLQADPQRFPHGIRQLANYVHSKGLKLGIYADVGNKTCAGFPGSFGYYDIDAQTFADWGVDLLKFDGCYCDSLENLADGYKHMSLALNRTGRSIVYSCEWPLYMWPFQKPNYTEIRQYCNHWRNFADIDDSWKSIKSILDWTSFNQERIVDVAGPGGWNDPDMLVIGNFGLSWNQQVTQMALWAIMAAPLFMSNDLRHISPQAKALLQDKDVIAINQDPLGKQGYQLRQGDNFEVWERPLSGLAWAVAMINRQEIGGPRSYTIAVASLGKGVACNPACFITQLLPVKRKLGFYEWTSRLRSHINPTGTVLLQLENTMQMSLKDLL
Rango release inh = inhibitors of RanGTP-induced Rango-importin beta complex dissociation. O95149+P62826. Biochemical FRET Rango-importin beta, RanGTP-induced dissociation. Potency, µM (highest dose often 46.1 µM), for the others: top-dose activity change, negative = inhibition. actives 0.071% (n = 340,000). AID 540253; active means falling FRET ratio curve, often poorly fitted, with flat reads before Ran was added; inconclusive means other falling curves, or compound fluorescence or quenching; inactive means flat or rising ratio curve;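 also: potency is read from the fitted curve at half-maximal effect; % of control where 0% means no effect; nearly all actives have a fitted effect of over 45% in size; -100% = wells without RanGTP and RCC1; the record marks most hits as doubtful in a second field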
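Two FRET readings bracket the reaction: one 5 min after compound meets Rango–importin beta, another 45 min after RanGTP-RCC1 (0.6 uM Ran, 0.2 uM RCC1, 2 mM GTP) is added. Only the second defines inhibition.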
Rango-impB inh = Rango-importin beta binding inhibition. Rango CFP/YFP FRET sensor + importin beta, 45 min. Potency, µM (top dose mostly 92.2 µM), without a hit: at the highest dose inhibition of complex formation. actives 0.031% (n = 340,000); active = rising FRET ratio curve, often small or poorly fitted; inconclusive = mostly compound fluorescence or quenching in the first reads; inactive = flat curves in all reads;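 also: potency is read from the fitted curve at half-maximal effect; 0% = DMSO wells and 100% = buffer wells lacking importin beta; nearly all actives have a fitted effect of over 15% in size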
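FRET biosensor Rango (snurportin 1 IBB between N-terminal EYFP and C-terminal Cerulean), 50 nM in PBS/1 mM DTT/0.02% Tween-20/0.1% BSA, preincubated 5 min RT with compound; 0.125 microM importin beta added, 45 min RT, CFP/YFP FRET ratio read.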
Starred values were filed as active, the others as inactive; ? = inconclusive; . = not tested or not shown. These rows are one share of the data, so the mix of outcomes need not match the whole.

miR-21 FLuc	GLA inh pH 4.5	Rango release inh	Rango-impB inh	structure
-2%	6	-8%	-0.8%	CCO[C@H]1OC(C(=O)N2CCN(Cc3ccccc3)CC2)=C[C@@H](C)[C@@H]1CCCO
.	.	11%	3.1%	C=C1CC(COc2ccc3c(C)c(Cl)c(=O)oc3c2)(c2ccccc2)OC1=O (stereo not drawn)
-9%	0	.	.	C=CCC(Nc1ccccc1)c1ccc(OC)c(OC)c1 (stereo not drawn)
6%	-1	-9%	2.0%	COc1ccc(N2CCN(C(=O)CCC(=O)c3cc(C)sc3C)CC2)cc1
?	-22	7%	-0.4%	CCCOc1ccc(C(=O)N2CCN(c3ccc(NC(=O)CC)cc3Cl)CC2)cc1
-4%	2	-5%	1.2%	O=C(O)CCSCc1ccccc1F
.	.	15%	0.6%	CCOc1ccc(NC(=O)CSc2cn[nH]n2)cc1
6%	1	-15%	0.2%	Cc1cccc(OCC(=O)NC(Cc2ccccc2)C(=O)O)c1 (stereo not drawn)
.	.	-2%	-1.4%	Cc1c(C(=O)N(Cc2nnc(-c3ccccc3Cl)o2)C2CC2)oc2ccccc12
0%	-3	3%	-2.0%	CC(=O)N1CCC(=O)N(C(C)C)c2ccccc21
7%	.	0%	-0.6%	CCC(C(=O)NC1CCCC1)N(C(=O)c1snc(C(N)=O)c1N)c1ccc(OC)c(OC)c1 (stereo not drawn)
7%	-12	-11%	-0.1%	COc1c(Cl)cnn(-c2ccc(C)cc2)c1=O
2%	0	20%	1.6%	CCOC(=O)C(CC)Sc1ncnc2nc[nH]c12 (stereo not drawn)
-9%	-4	22%	0.7%	Cc1ccc(S(=O)(=O)Cn2nnnc2C(c2ccccn2)N2CCN(c3ccccc3)CC2)cc1 (stereo not drawn)
-24%	-5	-10%	0.8%	COc1ccc(NC(=S)NCc2ccco2)cc1
0%	-11	-11%	?	O=C1CCC/C(=N\NC(=O)c2ccc(COc3cccc4cccnc34)cc2)C1

In the list so far, these have an NH in an aromatic ring:
miR-21 FLuc	GLA inh pH 4.5	Rango release inh	Rango-impB inh	structure
.	.	15%	0.6%	CCOc1ccc(NC(=O)CSc2cn[nH]n2)cc1
2%	0	20%	1.6%	CCOC(=O)C(CC)Sc1ncnc2nc[nH]c12 (stereo not drawn)

Some of these compounds in order of count of non-hydrogen atoms, smallest number first.
miR-21 FLuc	GLA inh pH 4.5	Rango release inh	Rango-impB inh	structure
2%	0	20%	1.6%	CCOC(=O)C(CC)Sc1ncnc2nc[nH]c12 (stereo not drawn)
0%	-11	-11%	?	O=C1CCC/C(=N\NC(=O)c2ccc(COc3cccc4cccnc34)cc2)C1
7%	.	0%	-0.6%	CCC(C(=O)NC1CCCC1)N(C(=O)c1snc(C(N)=O)c1N)c1ccc(OC)c(OC)c1 (stereo not drawn)

(more compounds)
miR-21 FLuc	GLA inh pH 4.5	Rango release inh	Rango-impB inh	structure
5%	2	-6%	4.1%	CC(Sc1nncs1)C(=O)NCC(=O)Nc1ccc(F)c(F)c1F (stereo not drawn)
-6%	-4	3%	0.3%	COc1ccc(C(=O)CSc2nnc(CN3CCCCC3)n2-c2ccc(F)cc2)cc1
0%	-6	-12%	5.0%	CNS(=O)(=O)c1cccc(C(=O)NCC2(N3CCOCC3)CCCCC2)c1
0%	3	0%	-2.2%	CCN1CCN(CC(O)COCc2cc(OC)c(OC)c(OC)c2)CC1 (stereo not drawn)
9%	.	?	3.5%	CCN1CCN(C(=O)C2CCCN(S(=O)(=O)c3ccc(OC)c(OC)c3)C2)CC1 (stereo not drawn)
-29%	-8	0%	0.2%	O=C(Nc1cnc2ccccn2c1=O)c1ccc(F)cc1
-3%	1	-6%	0.3%	COc1ccc(C2NC(=O)NC(C)=C2C(C)=O)cc1 (stereo not drawn)
-1%	0	25%	0.1%	O=C(N1CCN(CCO)CC1)N1c2ccccc2CCc2ccccc21
-59%	5	-14%	1.0%	CCC(=O)NCCc1nc2cc(NC(=O)c3ccc(OC)cc3)ccc2n1C
-40%	6	-10%	-4.5%	CC(C)c1cc(C(=O)NCc2ccco2)no1
-2%	0	3%	-0.8%	CC(=O)c1ccc(N2CCN(S(=O)(=O)c3c(C)[nH]c(=O)[nH]c3=O)CC2)cc1
.	.	-7%	-1.2%	O=C(c1ccc2c(=O)n3c(nc2c1)CCC3)N1CCCSC1=Nc1ccccc1
22%	-10	-1%	-1.5%	Cc1ccc(N=Cc2c(C)[nH]n(-c3nc4ccccc4[nH]3)c2=O)cc1
-18%	6	-6%	-1.1%	O=C(c1ccccc1)N1CCCCCC1
-1%	6	9%	0.3%	CCOC(=O)C1CCCN(c2c(NCc3ccco3)c(=O)c2=O)C1 (stereo not drawn)
-3%	.	23%	-2.0%	Cn1nccc1C(=O)N1CCCC(N2CCN(Cc3ccc4c(c3)OCO4)CC2)C1 (stereo not drawn)

Ordered by the number under miR-21 FLuc (smallest number first): 3 of the compounds above.
miR-21 FLuc	GLA inh pH 4.5	Rango release inh	Rango-impB inh	structure
-59%	5	-14%	1.0%	CCC(=O)NCCc1nc2cc(NC(=O)c3ccc(OC)cc3)ccc2n1C
-1%	6	9%	0.3%	CCOC(=O)C1CCCN(c2c(NCc3ccco3)c(=O)c2=O)C1 (stereo not drawn)
22%	-10	-1%	-1.5%	Cc1ccc(N=Cc2c(C)[nH]n(-c3nc4ccccc4[nH]3)c2=O)cc1

Remaining list, next part
miR-21 FLuc	GLA inh pH 4.5	Rango release inh	Rango-impB inh	structure
10%	4	-4%	-0.8%	Cc1ccccc1-c1nc(CS(=O)(=O)CC(=O)N(C)C2CCCCC2)c(C)o1
-8%	-4	19%	?	N#C/C(=C\c1cccc(Cl)c1)c1n[nH]c(Cn2cncn2)n1
-1%	3	-5%	0.3%	COc1ccccc1NC(=O)Cn1nc(-c2ccncc2)nc1SCC(=O)NC1CCCC1
-26%	7	0%	6.6%	O=C(c1ccco1)N1CCN(CC2CC3C=CC2C3)CC1 (stereo not drawn)
-3%	2	-7%	-3.4%	CCOC(=O)c1ccc(N2C(=O)CC(C)(CC)CC2=O)cc1
-3%	7	1%	-4.7%	CCCCNC(=O)C1CC(c2ccc(C(F)(F)F)cc2)=NO1 (stereo not drawn)
1%	-1	14%	4.3%	O=C(O)CCSc1nnc(COc2ccc([N+](=O)[O-])cc2)n1-c1ccccc1
.	.	0%	2.4%	Cc1ccc(C)c(S(=O)(=O)N2CCN(C(=O)[C@@H](NC(=O)c3ccc(F)cc3)C(C)C)CC2)c1
.	.	0%	-4.1%	CCCCNC(=O)COC(=O)C1CCN(S(=O)(=O)c2ccc3c(c2)OCCO3)CC1
.	.	12%	2.3%	CN(C)c1ccc(C(=O)NNC(=O)C23CC4CC(CC(C4)C2)C3)cc1
-44%	-2	1%	-0.9%	Cc1ccnc(N(C(=O)c2cccs2)C(=O)c2cccs2)c1
0%	3	-8%	-0.1%	Fc1ccc(NC(=S)NN2CCOCC2)cc1Cl
1%	.	11%	-2.2%	NC(=O)Cn1cc(/C=N\NS(=O)(=O)c2ccc(F)cc2)c2ccccc21
-1%	.	-11%	-3.9%	Cc1ccccc1C(=O)NCCNC(=O)c1cnccn1
0%	-4	0%	0.4%	CCOC(=O)CSc1ncnc2c1cnn2-c1ccc(C)cc1C
1%	1	6%	0.2%	Cc1c(Br)c([N+](=O)[O-])nn1CC(=O)NCc1ccccn1
-35%	9	7%	-3.1%	Cc1nc2ccc(N)cc2c(=O)n1Cc1ccc(Cl)cc1
-4%	3	1%	-0.5%	O=C(N/N=C\c1ccc(-c2ccccc2[N+](=O)[O-])o1)C1COc2cc3ccccc3cc2O1 (stereo not drawn)
-11%	-6	6%	-0.2%	Cc1ccc(C(=O)OCC(=O)NC(=O)c2cccn2C)cc1[N+](=O)[O-]
.	.	-8%	-2.3%	Cc1ccc(C)c(S(=O)(=O)Nc2ccc(C(=O)NCCCN3CCOCC3)cc2)c1
4%	7	-5%	-0.7%	O=C(NCC(c1ccco1)N1CCN(c2ccccc2)CC1)c1ccc2c(c1)OCO2 (stereo not drawn)
-52%	-3	18%	-0.3%	Cc1cc(CC(C)C)n(-c2nc3ccccc3c(=O)n2OCC(N)=O)n1
-18%	.	-5%	-1.3%	Cc1cc(CNC(=O)c2cccc(OC3CCN(S(=O)(=O)N(C)C)CC3)c2)on1
-52%	-1	2%	0.1%	COCn1c(-c2cccc(Br)c2)nc2ccccc21
-4%	3	-1%	0.8%	CCOC(=O)NC1(C(F)(F)F)C(=O)N(Cc2ccccc2)C2=C1C(=O)CC(C)(C)C2 (stereo not drawn)
-1%	-7	9%	0.1%	COC(=O)c1ccc(OCCN2C3=NCCN3c3ccccc32)cc1
.	.	-4%	3.2%	Cc1ccc(C)c(-c2nnc(NC(=O)c3ccco3)o2)c1
2%	0	-13%	2.8%	Nc1c(Cl)ncnc1N1CCN(c2ncnc(Cl)c2N)CC1
-19%	.	0%	-1.3%	CCc1ccc(Nc2n[n+](-c3ccccc3)c(-c3ccc(C(=O)O)cc3)s2)cc1
-1%	8	-10%	?	COc1ccc2[nH]c(=O)c(C(c3nnnn3C3CCCC3)N3CCN(Cc4ccc5c(c4)OCO5)CC3)cc2c1 (stereo not drawn)
.	.	16%	0.7%	CCOCc1c(C(=O)NCC(c2ccco2)N2CCCC2)oc2ccccc12 (stereo not drawn)
1%	-29	?	?	Cc1csc2c(=O)sc(NC(=O)c3cccs3)nc12
15%	-5	-9%	3.2%	CN(C)c1cc[n+](CC(=O)N2c3ccccc3Sc3ccccc32)cc1
-53%	.	0%	-2.7%	Cc1cccc(-c2cc3nc(-c4ccccc4)cc(=O)n3[nH]2)c1
0%	.	9%	0.7%	O=C(NCCCN1CCOCC1)c1cnccn1
-3%	3	-5%	1.4%	CCOC(=O)Nc1ccccc1N1C(=O)c2ccccc2C1=O
0%	2	-7%	-1.2%	Cn1cc(Br)c(C(=O)NN2C(=O)C3C(C2=O)C2C=CC3C23CC3)n1 (stereo not drawn)
-2%	.	1%	3.4%	COc1ccc(CCNC(=O)C2CCN(S(=O)(=O)c3ccc(F)cc3)CC2)cc1
.	.	-4%	-2.0%	COc1cc(C(C)=O)ccc1OCC(=O)Nc1ccc(Cl)c(S(=O)(=O)N2CCOCC2)c1
-3%	.	-1%	2.9%	CCOc1cccc(-c2c(C(=O)N/N=C/c3ccoc3)nnn2-c2nonc2N)c1
6%	-23	-18%	0.7%	OCCC1CN(Cc2cnc(-c3ccc(Cl)cc3)nc2)CCN1C1CCCCC1 (stereo not drawn)
-34%	9	-1%	-3.4%	CCc1ccc(C(=O)NCC2COc3ccccc3O2)o1 (stereo not drawn)
-3%	.	1%	0.2%	Cc1cccc(Nc2ccc3nonc3c2[N+](=O)[O-])c1C
-1%	0	-4%	?	CC(=O)c1ccc(OCCCC(=O)NC2CCCc3ccccc32)cc1 (stereo not drawn)
18%	.	12%	4.4%	Cc1ccc(S(=O)(=O)N(C)CC(=O)NCCc2c[nH]c3ccccc23)cc1
-3%	9	2%	0.7%	CCOC(=O)c1sc(N)nc1C(C)C
4%	0	-7%	-0.1%	COc1cccc(CN(C)C(=O)c2csc3c2CCCC3)c1OC
-2%	.	5%	-1.3%	Cc1cc(C(=O)NCC(=O)Nc2c(C)cccc2C)c(C)o1
.	.	-17%	?	COc1cc(OC)cc(-c2c(C#Cc3ccsc3)c3cc(-c4ccc5[nH]ccc5c4)ccc3n2C)c1
.	.	3%	3.4%	CNC[C@H]1Oc2c(NS(=O)(=O)c3ccc(OC)cc3)cccc2C(=O)N([C@H](C)CO)C[C@H]1C
7%	-1	6%	2.1%	Cc1nc2sc3c(c2c(=O)n1NC(=O)CCl)CCCC3
-1%	.	-1%	2.5%	Cc1c(NC(=O)c2ccc(NS(=O)(=O)c3ccccc3)cc2)c(=O)n(-c2ccccc2)n1C
0%	4	0%	-0.6%	CCN(CC(=O)NC(C)(C)C)C(=O)c1ccc(Br)cc1
18%	.	-4%	-0.2%	CCCNC(=S)N1CCN(c2nc(-c3cccc(OC)c3)cs2)CC1
1%	-16	27%	-0.2%	CC(O)(C#CCN1CCCCC1)c1ccccc1 (stereo not drawn)
-9%	-1	29%	5.2%	CCOc1c2ccc(C(=O)NCc3ccc4c(c3)OCO4)cc2nn1CC
.	.	-9%	3.5%	COC(=O)[C@@]12CCCCN1[C@H](c1ccc(-c3ccc(Cl)c(Cl)c3)cc1)[C@H]1C(=O)N(C)C(=O)[C@H]12
